Screens as filed in PubChem.
KCNQ2 enhance – potentiators of rat KCNQ2 potassium channel | Potassium voltage-gated channel subfamily KQT member 2 (Rattus norvegicus), O88943 | CHO-K1 KCNQ2, FluxOR thallium flux fluorescence; hits give high values | B-score at 10 µM | actives 0.54% (n = 310,000);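 active = fluorescence ratio B-score at least 3 SD of library B-scores, with initial fluorescence B-score within 3 SD, cut at about 5.3 in these data; same plate scores as AID 2156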;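 note: B-score of peak minus minimum over baseline fluorescence ratio after K+ and Tl+ stimulus; positive B-score means potentiation of KCNQ2 with more thallium influx and brighter signal; only the inactives scoring about 0 or higher are listed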
Target sequence (O88943 whole entry, looked up): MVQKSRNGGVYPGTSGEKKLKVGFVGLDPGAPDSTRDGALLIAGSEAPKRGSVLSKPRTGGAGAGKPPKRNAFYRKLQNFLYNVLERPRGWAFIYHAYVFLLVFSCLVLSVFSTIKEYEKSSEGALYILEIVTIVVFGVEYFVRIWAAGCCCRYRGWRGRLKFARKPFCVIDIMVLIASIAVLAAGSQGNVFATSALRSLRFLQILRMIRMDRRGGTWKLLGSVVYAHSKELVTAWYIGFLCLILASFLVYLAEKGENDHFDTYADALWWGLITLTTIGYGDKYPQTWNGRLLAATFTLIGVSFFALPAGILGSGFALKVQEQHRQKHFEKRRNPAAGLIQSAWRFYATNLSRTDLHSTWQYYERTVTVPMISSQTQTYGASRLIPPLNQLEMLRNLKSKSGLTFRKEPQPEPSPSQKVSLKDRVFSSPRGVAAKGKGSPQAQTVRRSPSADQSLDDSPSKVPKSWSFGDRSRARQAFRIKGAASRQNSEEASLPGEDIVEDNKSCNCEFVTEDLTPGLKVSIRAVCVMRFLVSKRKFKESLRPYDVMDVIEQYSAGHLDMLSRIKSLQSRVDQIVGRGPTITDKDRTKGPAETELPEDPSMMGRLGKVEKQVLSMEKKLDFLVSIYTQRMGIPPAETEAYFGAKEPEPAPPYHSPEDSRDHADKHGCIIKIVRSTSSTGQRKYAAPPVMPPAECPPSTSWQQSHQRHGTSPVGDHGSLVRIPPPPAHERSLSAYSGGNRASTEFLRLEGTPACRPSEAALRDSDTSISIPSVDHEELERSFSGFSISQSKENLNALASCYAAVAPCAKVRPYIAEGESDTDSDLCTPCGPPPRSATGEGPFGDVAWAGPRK
KCNQ2 enhance baseline – recorded beside KCNQ2 enhance, whose call it bears; B-score; compound at 10 µM; measured here: initial fluorescence intensity artifact check;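 brightness before thallium and not channel activity; 0 = typical well and far values either way flag optical interference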
* marks the source's active call; other numbers are inactive results; & = joins results of further samples.

SMILES	KCNQ2 enhance	KCNQ2 enhance baseline
CC(C)COc1ccc(Cc2c(O)[nH]c(=S)[nH]c2=O)cc1	0.88	0.03
COc1cccc(CN2CCCC(C(=O)c3ccccc3SC)C2)c1O (centres undefined)	0.82	-0.09
CCC(=NCc1ccco1)c1c(O)n(-c2ccc(C)cc2)c(=O)[nH]c1=O	0.01	0.22
COc1cc(OC)c([C@H]2C=C(C)[C@H]3C[C@@H]2C3(C)C)c(OC)c1	1.48	-0.74
CCN1CCN(c2ccc([N+](=O)[O-])cc2C#N)CC1	1.34	-1.12
C=CCn1c(O)c(/C(C)=N/N2CCN(C)CC2)c(=O)[nH]c1=O	1.71	2.86
S=C=Nc1ccccn1	0.81	0.13
COC1=CC(=O)OC(/C=C/c2ccccc2)C1 (centres undefined)	0.25	1.77
CC(C)N1CCC2(CC1)NC(CO)(CO)CO2	0.41	-0.02
COc1cc2c(cc1O)C[C@H]1NCCc3cc4c(c-2c31)OCO4	0.88	-0.01
CN(C)C(=O)Oc1ccc2c(c1)O/C(=C\c1cccc([N+](=O)[O-])c1)C2=O	0.61	-0.99
CCOc1ccc(N=C2SCCCN2C)cc1	2.57	0.49
OC1(c2ccccc2F)CC2CCC(C1)N2CCN1CCOCC1 (centres undefined)	1.45	-0.82
CC1=C2C(=O)C3C(CC=C4CC(O)CCC43C)C2CCC12OC1CC(C)CNC1C2C (centres undefined)	0.37	0.63
COc1ccc(C(CC(=O)N2CCC3(CC2)OCCO3)NS(=O)(=O)c2ccc(C)cc2)cc1 (centres undefined)	1.19	-1.21
CCOC(=O)CNC(=O)CNC(=O)C(Cc1ccc(N(CCCl)CCCl)cc1)NC(C)=O (centres undefined)	0.04	-0.57
O=C(CN1CCN(Cc2ccc(Cl)cc2)C1=O)N1CCC2(CC1)OCCO2	0.67	1.71
O=C(Cc1ccccc1)N1CCN(C2CCCC2)CC1	0.63	-2.64
CC(=O)c1ccc(NC(=O)N2C[C@H]3C[C@@H](C2)c2cccc(=O)n2C3)cc1	0.91	-4.35
COc1ccccc1CNC(=O)CCC(=O)N1C[C@H]2C[C@@H](C1)c1cccc(=O)n1C2	0.58	-0.05
CCOP(=O)(OCC)c1ccc(O)cc1	0.04	0.1
CCN(CC)CC(O)c1ccc(C2CCCC2)cc1 (centres undefined)	0.37	-0.86
Cc1cccc2c1N(N=O)CCC2	0.29	1.97
Cc1cc(/C=C2\C(=O)NC(=O)N(c3cccc(Br)c3)C2=O)c(C)n1C	1.75	-0.12
Cc1cc(C)nc(N2Cc3ccccc3C2=N)n1	1.43	0.41
Cn1c(C(=O)O)c(CC(=O)N2CCN(Cc3ccccc3)CC2)c2ccccc21	3.35	-1.7
COc1ccccc1OP(=O)(Nc1cccnc1)Oc1ccccc1OC	0.04	-0.96
O=C(O)CCn1cc(C=C2C(=O)NC(=S)NC2=O)c(-c2ccccc2)n1	0.83	-0.66
CCOP(=O)(OCC)C(O)c1ccc(OC)cc1OC (centres undefined)	0.3	-0.37
CN1CCN(c2cc(N3CCNCC3)ccc2[N+](=O)[O-])CC1	0.14	-1.23
O=c1c2ccccc2nc(/C=C/c2ccc(O)cc2)n1-c1ccc(O)cc1	0.55	0.01
C=CCn1c(O)c(C(C)=NCc2cc(OC)cc(OC)c2)c(=O)[nH]c1=O	1.36	-0.26
Cc1ccccc1-c1nc2ccccc2c(=O)n1C	1.34	0.15
COc1ccc(CC2C(=O)N(c3ccccc3)C(=O)N(c3ccccc3)C2=O)c(OC)c1	0.05	0.22
COc1ccccc1OCC(=O)N1CCCC(N2CCN(c3ccc(F)cc3)CC2)C1 (centres undefined)	1.18	0.52
CC(C)n1nnnc1CN1CCN(C)CC1	0.37	0
Fc1ccc(CCNCc2ccccc2Cl)cc1	0.28	-0.43
COC(=O)C1=C(c2ccc(S(C)(=O)=O)cc2)C[C@@H]2CC[C@H]1N2C(=O)NCC1CC1	0.38	0.79
NS(=O)(=O)c1ccc(-c2ccc(C=C3C(=O)NC(=O)NC3=O)o2)cc1	0.86	1.81
Cc1nc2ccc(Cl)cc2c(=O)n1-c1ccc([N+](=O)[O-])cc1	0.1	0.03
CCOC(=O)c1c(C)n(COCCO)c2ccc(O)cc12	0.74	-0.37
CCCC/C(=N\O)c1c[nH]c2ccccc12	0.88	1.22
O=C1NC(=O)N(C2CCCCC2)C(=O)C1C1c2ccccc2C(=O)N1Cc1ccccc1 (centres undefined)	0.12	-1.43
COc1cccc(NC(=O)N2CCC3(CC2)OCCO3)c1	0.73	0.19
Cc1cc(=O)oc2cc(OCC(=O)N3C[C@H]4C[C@@H](C3)c3cccc(=O)n3C4)ccc12	0.47	-0.7
CCOC(=O)C1=C(N)Oc2ccccc2C12C(=O)N(CC(=O)OC)C(CC(=O)OC)=C2C(=O)OC (centres undefined)	1.37	0.04
NS(=O)(=O)c1cccc(N2CCNCC2)c1	0.73	0.95
Cc1c(C(=O)N2CCC3(CC2)OCCO3)oc2ccccc12	1.12	-0.7
O=C(CNC(=O)c1ccc(Cl)cc1)Nc1ccc(Br)cc1C(=O)c1ccccc1	1.92	-0.68
C=CC1CN2CCC1CC2c1[nH]c2ccccc2c1CCO (centres undefined)	0.09	0.23
Cc1cc(OCC(=O)N2CCC(C(=O)NCC(C)C)CC2)c2c3c(c(=O)oc2c1)CCCC3	2.06	0.37
Cc1ccc(/C=C2\C(=O)NC(=O)N(CCc3ccc(F)cc3)C2=O)s1	0.98	-0.09
C=CCNC(=O)c1c(N)n(Cc2ccco2)c2nc3ccccc3nc12	0.04	-1.04
C=CCn1c(O)c(C(C)=NCCC(c2ccccc2)c2ccccc2)c(=O)[nH]c1=O	0.28	-1.32
Cc1cnc(NC(=O)CN2CCCCC2)s1	0.02	1.76
Cc1cc(C(=O)N2CCC3(CC2)OCCO3)no1	0.86	0.13
CN[C@H]1C[C@H]2O[C@@](C)([C@H]1OC)n1c3ccccc3c3c4c(c5c6ccccc6n2c5c31)C(=O)NC4	9.27*	-0.84*
CCP(=S)(CC)c1ccc(N(C)C)cc1	1.65	-0.3
CCOP(=O)(OCC)C(NC(=O)c1cccc([N+](=O)[O-])c1)C(Cl)(Cl)Cl (centres undefined)	0.12	0.7
CN1C(=O)C(=Cc2ccccc2Oc2ccc(Cl)c(F)c2)C(=O)N(C)C1=O	1.21	0.85
Next part
SMILES	KCNQ2 enhance	KCNQ2 enhance baseline
Nc1ncc2[nH]cnc2n1	0.01&1.23	0.26&-0.31
CC(=O)OC1N=C(c2ccccc2Cl)c2cc(Br)ccc2N(C)C1=O (centres undefined)	0.28	1.68
COc1ccn(C)c(=O)c1C#N	0.56	-0.97
Cc1cc(C=C2C(=O)NC(=O)NC2=O)c(C)n1-c1cccnc1	0.56	-0.46
CCOC(=O)COc1ccc2c(c1)c(C(C)=O)c(C)n2Cc1ccccc1	1.46	0.39
CN(C)S(=O)(=O)c1cc(NC(=O)C[N+]23CCN(CC2)CC3)ccc1Cl	0.16	-0.6
S=P(NC1CCCCC1)(N1CC1)N1CC1	1.2	2.14
COc1ccc(OC)c(CNCCc2ccc(OC)c(OC)c2)c1	0.17	0.14
Cc1cccc(-n2c(O)c(/C=N/N3CCOCC3)c(=O)[nH]c2=S)c1	0.42	-1.12
Cc1nc2ccccc2c(=O)n1-c1ccc(-c2ccccc2)cc1	1.02	-0.34
COc1cccc(-c2cc(C(F)(F)F)n3nc(C(=O)N4CCC5(CC4)OCCO5)cc3n2)c1	0.27	1.17
Cc1ncc([N+](=O)[O-])n1CCOC(N)=O	0.47	1.72
CCCc1cc(=O)oc2cc(OCC(=O)N3CCC(C(=O)O)(c4ccccc4)CC3)ccc12	0.88	-0.15
O=C1CC[C@@]2(O)[C@H]3Cc4ccc(O)c5c4[C@@]2(CCN3CC2CC2)[C@H]1O5	0.35	0.33
CC[N+](CC)(CC)CCCOC(=O)C(O)(c1ccccc1)C1CCCCC1 (centres undefined)	0.37	0.53
Cc1ccc2c(c1)C1CN(C)CCC1N2C(=O)Cc1cccs1 (centres undefined)	0.36	-0.44
N[C@@H](Cc1ccccc1)C(=O)N1C[C@H]2C[C@@H](C1)c1cccc(=O)n1C2	0.02	-0.01
O=[N+]([O-])c1ccc(Nc2ccccc2)cc1	0.95	0.03
ClCCNc1nc2ccc(Cl)cc2[nH]1	0.81	-0.86
COC(=O)C1=C(c2ccccc2)C[C@@H]2CC[C@H]1N2C(=O)NCc1ccco1	0.09	0.52
N=c1c2c(n(Cc3ccc(Cl)cc3Cl)c3c1CCC3)CCCC2	0.81	-0.55
O=[N+]([O-])c1ccc(-c2ccccc2)c([As](=O)(O)O)c1	0.34	-0.91
C=CCN1C(=O)NC(=O)/C(=C/c2ccc(N(C)C)c(Br)c2)C1=O	0.23	1.81
CC1N=C(c2ccccc2)c2cc(Br)ccc2NC1=O (centres undefined)	0.19	-0.63
CCC(=O)N1N=C(c2c(O)n(CCc3ccccc3)c(=O)[nH]c2=O)CC1c1ccc(OC)c(OC)c1 (centres undefined)	1.47	1.05
O=C(Nc1ccc(C(F)(F)F)cc1)OC1CN2CCC1CC2 (centres undefined)	0.91	-1.79
O=S(=O)(c1ccc(Cl)cc1Cl)N1CCCC1c1cccnc1 (centres undefined)	0.43	0.77
CCOC(=O)Cn1cc(C(=O)c2ccccc2)c2ccccc21	0.29	-0.15
Cc1nnc(SCc2nc3ccccc3c(=O)n2-c2ccccc2Cl)n1N	0.68	-0.91
N=C1c2ccccc2CN1c1ccc(F)c([N+](=O)[O-])c1	0.14	-0.13
Cc1nn(Cc2ccccc2)c(Cl)c1C(=O)Nc1ccc(OC(F)(F)F)cc1	0.01	-0.33
CCN(CC)C(=O)c1ccc(NC(=O)COc2ccc(-c3nn(C)c(=O)c4ccccc34)cc2)cc1	1.21	-1.56
CN1C(=O)C(=Cc2ccc(-c3cccc(Cl)c3)o2)C(=O)N(C)C1=O	0.24	0.36
CC12CC[C@H]3[C@@H](CCC4(O)C[C@H](O)CCC34/C=N/NC(=O)Cc3ccccc3)C1(O)CCC2C1=CC(=O)OC1 (some centres undefined)	2.07	-1.37
O=C(Cn1ncc2ccccc21)N1CCC2(CC1)OCCO2	0.34	-0.25
COc1ccc(C2N3CC(C)(C)CN23)cc1 (centres undefined)	0.69	-0.5
CC[N+](C)(CC)CCCCOc1ccc2c(c1)C(=O)c1cc(OCCCC[N+](C)(CC)CC)ccc1-2	1.81	0.04
C=CCn1c(O)c(C(CC)=Nc2ccc(N(C)C)cc2)c(=O)[nH]c1=O	0.3	-0.57
COc1ccc(CCNCc2ccc(F)cc2)cc1OC	0.04	1.01
CC(C)CNC(=O)c1c(N)n(Cc2ccc3c(c2)OCO3)c2nc3ccccc3nc12	0.01	-0.82
CCN1C(=O)/C(=C/c2ccc3c(c2)CCN3CCCCl)C(=O)NC1=S	0.79	-2.22
CC(N)Cc1cn(Cc2ccccc2)c2ccccc12 (centres undefined)	0.61	-0.02
CCOC(=O)c1c(C)n(Cc2ccccc2)c2ccc(OCC(O)Cn3nc(C)nc3C)cc12 (centres undefined)	1.11	-0.84
CC1(C)C2CC=C(CN3CCOCC3)C1C2 (centres undefined)	0.82	-0.23
CCCOC(=O)C1C2c3ccccc3C(c3ccccc32)C1C(=O)O (centres undefined)	1.21	-2.17
CC(=O)Nc1ccc(OCCF)cc1	1.61	0.92
CCC(=NCC1CCCO1)c1c(O)n(-c2ccccc2C)c(=O)[nH]c1=O (centres undefined)	0.56	0.25
Cc1ccc(N2C(=O)NC(=O)/C(=C\c3cnc(-c4ccccc4)nc3)C2=O)cc1	1.84	-0.09

Reprinted from the part before: two entries, then new ones.
SMILES	KCNQ2 enhance	KCNQ2 enhance baseline
CCC(=NCC1CCCO1)c1c(O)n(-c2ccccc2C)c(=O)[nH]c1=O (centres undefined)	0.56	0.25
Cc1ccc(N2C(=O)NC(=O)/C(=C\c3cnc(-c4ccccc4)nc3)C2=O)cc1	1.84	-0.09
Cn1cc(C(=O)N2CCCCC2)c2ccccc21	1.39	0.15
O=C1CCN(C(=O)C(Cl)Cl)N1	0.48	0.89
Cn1c(O)c(C=NCCN2CCNCC2)c(=O)n(C)c1=O	0.01	0.88
Nc1nc(SCCC(F)=C(F)F)n[nH]1	0.02	-0.11
CCCCn1c(O)c(C(CC)=NCCN2CCOCC2)c(=O)[nH]c1=O	1.2	0.07
CCN(CC)P(=O)(c1nccn1C)N(CC)CC	0.78	-1.86
CCN1C[C@]2(COC)CC[C@H](O)[C@@]34C5C[C@@H]6[C@@H](OC)C[C@@](O)(C5[C@H]6O)[C@](O)([C@@H](OC)C23)[C@@H]14 (some centres undefined)	1.16	-0.83
CC(C)C12CN3CC(C(C)C)(CN(C1)C3c1cccnc1)C2=O (centres undefined)	0.89	-1.7

Compounds above containing fluorine:
SMILES	KCNQ2 enhance	KCNQ2 enhance baseline
OC1(c2ccccc2F)CC2CCC(C1)N2CCN1CCOCC1 (centres undefined)	1.45	-0.82
COc1ccccc1OCC(=O)N1CCCC(N2CCN(c3ccc(F)cc3)CC2)C1 (centres undefined)	1.18	0.52
Fc1ccc(CCNCc2ccccc2Cl)cc1	0.28	-0.43
Cc1ccc(/C=C2\C(=O)NC(=O)N(CCc3ccc(F)cc3)C2=O)s1	0.98	-0.09
CN1C(=O)C(=Cc2ccccc2Oc2ccc(Cl)c(F)c2)C(=O)N(C)C1=O	1.21	0.85
COc1cccc(-c2cc(C(F)(F)F)n3nc(C(=O)N4CCC5(CC4)OCCO5)cc3n2)c1	0.27	1.17
O=C(Nc1ccc(C(F)(F)F)cc1)OC1CN2CCC1CC2 (centres undefined)	0.91	-1.79
N=C1c2ccccc2CN1c1ccc(F)c([N+](=O)[O-])c1	0.14	-0.13
Cc1nn(Cc2ccccc2)c(Cl)c1C(=O)Nc1ccc(OC(F)(F)F)cc1	0.01	-0.33
COc1ccc(CCNCc2ccc(F)cc2)cc1OC	0.04	1.01
CC(=O)Nc1ccc(OCCF)cc1	1.61	0.92
Nc1nc(SCCC(F)=C(F)F)n[nH]1	0.02	-0.11

This is a subset, so the mix of outcomes need not match the whole.
